Screening results (PubChem)
RE007 growth inh: less growth of the S. pombe RE007 Vpr strain | Potency, µM (series often up to 92.2 µM), without a hit: at the top dose activity change, negative = less growth | S. pombe RE007 Vpr strain, BacTiter-Glo ATP luminescence, 24 h; control for the full effect not named in the record | actives 0.21% (n = 360,000); active = well fitted falling curve with a large enough effect; inconclusive = small, poorly fitted or top-dose-only effect; inactive = no such curve, though single readings can be large or run the other way;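 also: nearly all actives have a fitted effect of over 50% in size; the assay follows cell death caused by Vpr and the record does not say whether a fall means rescue or toxicity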
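Fission yeast RE007 carrying one integrated HIV-1 vpr copy, seeded at OD 0.01 in PMG+AL medium with 23 nL pinned compound. Grown 24 h at 30 degrees; viability read by BacTiter-Glo luminescence after 5 min.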
StopGo reporter: FMDV 2A StopGo reporter, luciferase signal; human cells with a luciferase reporter of 2A StopGo recoding; control for the full effect not named in the record; Potency, µM (top dose mostly 57.9 µM), without a hit: at the top dose signal change, negative = less light; actives 1.2% (n = 410,000); active = well fitted falling curve with a large enough effect; inconclusive = small, poorly fitted or top-dose-only effect; inactive = no such curve, though single readings can be large or run the other way; tested in HEK293T cells; also: nearly all actives have a fitted effect of over 45% in size; luciferase light after 4 h
An asterisk follows results filed as active; ? = inconclusive; & = joins results of further samples; [ ] = remark or other dose. % is scaled to controls: 0 for no effect and ±100 for the full control effect; potency is read from the fitted curve at half-maximal effect. Only part of the results is shown. The share of hits here may be higher or lower than overall.

SMILES	RE007 growth inh	StopGo reporter
Cc1cccnc1C(NC(=O)C1CCN(CCCOc2ccccc2)CC1)c1ccc(F)cc1 (stereo not drawn)	5%	-21%
COc1ccc(CN(C)C(=O)CCC(=O)N2CCN(S(=O)(=O)c3ccc(Cl)cc3)CC2)c(OC)c1	2%	-16%
CN(CC(=O)Nc1cc(C(F)(F)F)ccc1-n1cncn1)Cc1ccccc1N1CCOCC1	0%	?
c1cc(-c2ccc3c(c2)CCO3)n2cnnc2c1	3%	-7%
CN(C)c1ccc(/C=C/CNC[C@H]2O[C@@H](n3ccc(N)nc3=O)[C@H](O)[C@@H]2O)cc1	-19%	-8%
C[C@@H]1CN([C@@H](C)CO)C(=O)CCCn2nncc2CO[C@@H]1CN(C)S(=O)(=O)c1ccc2ccccc2c1	0%	-10%
CC[C@H](C)[C@H]1CNC(=O)C(=O)N1CC1CCN(CCCc2ccc(OC)c(OC)c2)CC1	-7%	-6%
O=C(Nc1ccn(CCCN2CCN(Cc3ccc(F)cc3)CC2)c(=O)n1)OCc1ccccc1	-2%	?
CCN(CC)C(=O)C1=C(C)N(CCCN2CCCC2=O)C(=O)C(CC(=O)NC(c2ccccc2)c2ccccc2)C1 (stereo not drawn)	-20%	-13%
O=C1[C@H](Cc2ccccc2)NCC=CC[C@H](c2ccc(Cl)cc2)N1Cc1ccccc1	-6%	-2%

Some of these compounds in order of heavy-atom count, lowest first:
SMILES	RE007 growth inh	StopGo reporter
CN(C)c1ccc(/C=C/CNC[C@H]2O[C@@H](n3ccc(N)nc3=O)[C@H](O)[C@@H]2O)cc1	-19%	-8%
CN(CC(=O)Nc1cc(C(F)(F)F)ccc1-n1cncn1)Cc1ccccc1N1CCOCC1	0%	?
COc1ccc(CN(C)C(=O)CCC(=O)N2CCN(S(=O)(=O)c3ccc(Cl)cc3)CC2)c(OC)c1	2%	-16%

Copied from above (4 entries):
SMILES	RE007 growth inh	StopGo reporter
CC[C@H](C)[C@H]1CNC(=O)C(=O)N1CC1CCN(CCCc2ccc(OC)c(OC)c2)CC1	-7%	-6%
O=C(Nc1ccn(CCCN2CCN(Cc3ccc(F)cc3)CC2)c(=O)n1)OCc1ccccc1	-2%	?
CCN(CC)C(=O)C1=C(C)N(CCCN2CCCC2=O)C(=O)C(CC(=O)NC(c2ccccc2)c2ccccc2)C1 (stereo not drawn)	-20%	-13%
O=C1[C@H](Cc2ccccc2)NCC=CC[C@H](c2ccc(Cl)cc2)N1Cc1ccccc1	-6%	-2%

Following part:
SMILES	RE007 growth inh	StopGo reporter
CCCCC1CC2=C(C(=O)OC(C)(C)O2)C(c2ccc(Cl)cc2)O1 (stereo not drawn)	-16%	-26%
Cc1cccnc1C1=NOC(Cc2ccccc2)C(=O)N1CCOc1ccc(F)cc1 (stereo not drawn)	-15%[18.4 µM]	-17%
C[C@H]1CCCCO[C@H](CN(C)Cc2ccncc2)[C@@H](C)CN([C@@H](C)CO)C(=O)c2cc(NS(=O)(=O)c3ccccc3)ccc2O1	6%	-17%
C=CCOC(=O)C1=C[C@H](c2ccc(C(F)(F)F)cc2)C[C@H](OCCCCO)O1	-8%	-22%
CCCCNC(=O)C1(C)CCC(=O)N1C1CC1 (stereo not drawn)	3%	-2%
CN1CCCCC1(C)C(=O)NCc1cc(Cl)ccc1F (stereo not drawn)	6%[18.4 µM]	-12%
CCCn1c(=S)[nH]c2cc(C(=O)N3CCN(c4ccccc4)CC3)ccc2c1=O	-14%	-26%
CC1(C(=O)NCc2cccc(C(F)(F)F)c2)CCN1C1Cc2ccccc2C1 (stereo not drawn)	-4%[18.4 µM]	-23%
COc1ccc(-c2cc(N3CCN(CCO)CC3)n3nccc3n2)cc1	8%	6%
Cc1cccnc1C(NC(=O)C1CCN(Cc2ccc(Cl)c(Cl)c2)CC1)c1ccc(Cl)cc1 (stereo not drawn)	2%	-27%
CC1(C)CC(=Cc2cc(O)ccc2[N+](=O)[O-])C(=O)c2ccccc21	11%	?
CCCC(=O)N1CCC1(C)C(=O)NCc1ccc(C(C)C)cc1 (stereo not drawn)	1%	-19%
CCc1nc2ccc(C(=O)Nc3ccc(C(N)=O)cc3)cn2c1N(C)CCC(C)C	3%	?
COc1ccccc1Cc1c(C2CCCCC2)nc2cc(C)c(Br)c(C)n12	-14%	0%
O=C(NCc1ccccc1Cl)c1ccc2sc([C@@H]3O[C@H](CO)[C@H](O)[C@H](O)[C@H]3O)nc2c1	7%[18.4 µM]	-18%
COc1ccc(Cc2c(C3CCCCC3)nc3cc(C)c(Br)c(C)n23)c(C)c1	3%	-17%
CCCCN1C(=O)C(=O)NC[C@@H]1CCCCN	10%	0%
CC(C)(C)NC(=O)C1(C)CCC(=O)N1C1CCN(Cc2ccccc2)CC1 (stereo not drawn)	-9%	-14%
CSc1ccccc1NC(=O)C1(C)CCN1C(=O)Cc1ccccc1Cl (stereo not drawn)	2%	-25%
Cc1ccccc1CN1C(=O)CSCC1(C)C(=O)Nc1c(C)cccc1C (stereo not drawn)	-9%	-11%
Cc1ccccc1CC(=O)Nc1ccc2c(c1)c(=O)n(C)n2-c1ccccc1F	9%	16%
COc1cc([N+](=O)[O-])ccc1-c1ccc(/C=C2\C(=O)ON=C2c2ccccc2)o1	-4%	?
Cc1cccc(C)c1NC(=O)C1C(c2ccc3c(c2)OCO3)=Nc2ccccc2N1C(=O)c1ccccc1 (stereo not drawn)	?	15%
OCC[C@H]1C[C@H](O)[C@@H](O)[C@]2(CCCCO2)O1	-3%	-9%
COc1ccc(-c2cc(NC=O)c3ncc(-c4cccc(C(=O)NCCN(C)C)c4)n3c2)c(OC)c1	-2%[18.4 µM]	-7%
O=C(Nc1nnc(-c2ccco2)o1)c1ccc(Br)s1	-2%	22%
CCOC(=O)C1CCCN(C(=O)Cc2ccc(OC)c(OC)c2)CC1 (stereo not drawn)	-20%[18.4 µM]	-7%
CCOC(=O)C1=C[C@@H](C2CCCC2)N(S(=O)(=O)c2ccc([N+](=O)[O-])cc2)[C@H]1c1ccccc1	9%	?
CSc1ccc(OC2(C)CCN(Cc3ccccc3)C2)cc1 (stereo not drawn)	-26%	-17%
COc1ccc(CCN2C(=O)c3ccccc3C2c2nnnn2C(C)C)cc1OC (stereo not drawn)	-3%	0%
O=C(Cc1ccc(NC(=O)C2CCCN(C(=O)C3CCCC3)C2)cc1)Nc1ccc(C(=O)N2CCOCC2)cc1 (stereo not drawn)	3%	0%
Cc1cc(C)n(CCNC(=O)[C@H]2O[C@@H](n3ccc(=O)[nH]c3=O)[C@H](O)[C@@H]2O)n1	21%	-11%
CCCCOCCCNC(=O)C[C@@H]1C[C@@]2(C(=O)OCC)CCCC=C2N(CCc2ccc(OC)c(OC)c2)C1=O	-3%	-6%
CC(=O)c1ccc(Nc2nc(C(N)c3ccccc3)cs2)cc1 (stereo not drawn)	6%	13%
O=C(Cc1cccnc1)N[C@@H]1CC[C@H](CCn2cc(Cc3ccccc3)nn2)O[C@@H]1CO	14%	-8%
O=C(Cc1ccc(NC(=O)C2CCN(C(=O)C3CCCC3)CC2)cc1)Nc1ccc(C(=O)N2CCOCC2)cc1	4%	-13%
CC[C@]12C(=O)N(C)C[C@H]([C@@H]3C(=O)N(Cc4ccccc4)C(=O)[C@@H]31)N2C(=O)c1ccc(F)cc1	-5%	-2%
COc1ccc(C(=O)O)c(O)c1	4%	-9%
O=C(O)CSc1c(Cl)c(=O)oc2ccc(Cl)cc12	9%	-4%
Oc1ccc(C[C@H]2CNC(=S)N2C[C@H]2CCCN2C[C@H](Cc2ccccc2)N2C[C@H](Cc3ccc(O)cc3)N(CC3CCCCCC3)C2=S)cc1	-8%	-25%

A second format for seven compounds above:
| Structure | RE007 growth inh | StopGo reporter |
| --- | --- | --- |
| COc1ccc(Cc2c(C3CCCCC3)nc3cc(C)c(Br)c(C)n23)c(C)c1 | 3% | -17% |
| CCCC(=O)N1CCC1(C)C(=O)NCc1ccc(C(C)C)cc1 (stereo not drawn) | 1% | -19% |
| O=C(Nc1ccn(CCCN2CCN(Cc3ccc(F)cc3)CC2)c(=O)n1)OCc1ccccc1 | -2% | ? |
| CN(CC(=O)Nc1cc(C(F)(F)F)ccc1-n1cncn1)Cc1ccccc1N1CCOCC1 | 0% | ? |
| Oc1ccc(C[C@H]2CNC(=S)N2C[C@H]2CCCN2C[C@H](Cc2ccccc2)N2C[C@H](Cc3ccc(O)cc3)N(CC3CCCCCC3)C2=S)cc1 | -8% | -25% |
| Cc1cccnc1C(NC(=O)C1CCN(CCCOc2ccccc2)CC1)c1ccc(F)cc1 (stereo not drawn) | 5% | -21% |
| O=C1[C@H](Cc2ccccc2)NCC=CC[C@H](c2ccc(Cl)cc2)N1Cc1ccccc1 | -6% | -2% |

(continued)
SMILES	RE007 growth inh	StopGo reporter
CC(NC(=O)C1CC(=O)N(c2ccc3c(c2)OCCO3)C1)c1ccccc1 (stereo not drawn)	-11%	-3%
CC(=O)N1C[C@@H](CO)[C@@H](N(C)C(=O)C2CCCCC2)C[C@H]1c1ccccc1	-6%	0%
CSCCC(c1nc2ccccc2[nH]1)n1c(-c2ccc3ncccc3c2)nc2ccccc21 (stereo not drawn)	6%	13%
c1ccc(CCc2ccc3n2Cc2cnnn2-c2ccccc2-3)cc1	12%	?
COc1ccccc1-c1cccc([C@@H]2C[C@H]3[C@H](CON3C)CN2C(C)=O)c1	4%	-5%
O=C(CCC(=O)OCCOc1ccccc1)OCCOc1ccccc1	-8%	-9%
N#CC1c2ccccc2-n2nncc2CN1Cc1cc(Cl)cc(Cl)c1 (stereo not drawn)	-15%	8.9µM*
COc1ccc(CN2CC[C@H]3C=CC[C@@H](C(=O)N4CCOCC4)[C@H]3C2=O)cc1OC	3%	-16%
O=C(NCc1ccccc1)C(c1ccccc1F)n1c(=O)c(-c2ccccc2)nc2ccccc21 (stereo not drawn)	-26%	0%
CC1(C)CC(=O)C=C(Nc2cccc(Cl)c2Cl)C1	3%	?
Cc1ccc(S(=O)(=O)N2CC3C(=O)C[C@@H](c4ccccc4Cl)N(S(=O)(=O)c4ccc(C)cc4)C3CC2c2ccccc2)cc1 (stereo partly drawn)	0%	3%
COCCN(Cc1ccc(C)cc1)C(=O)[C@H]1O[C@@H](n2ccc(=O)[nH]c2=O)[C@H](O)[C@@H]1O	-9%	-14%
CC(CC(=O)Nc1ccc2c(c1)c(=O)n(C)n2Cc1ccc(F)cc1)C(F)(F)F (stereo not drawn)	1%	0%
O=c1c2ccccc2sc2ccc(NCCCN3CCOCC3)cc12	-19%	11%
O=C(c1cccs1)N1C[C@H](n2cc(C3CC3)nn2)[C@@H](O)C[C@@H]1c1ccccc1	6%	-16%
Nc1ncnc2c1ncn2[C@@H]1O[C@H](C(=O)N2CCC(F)(F)CC2)[C@@H](O)[C@H]1O	-13%	-4%
COC(=O)C1=CN(c2cccc(OCc3ccccc3)c2)C(N)=C(C#N)C1c1ccc(-c2ccccc2)cc1 (stereo not drawn)	0%	-3%
NC(=O)c1cccc(-c2ccnc3c2CC(C(=O)NCc2ccccc2)O3)c1 (stereo not drawn)	-20%	-15%
CCN(CC)C(=O)c1cccc(-c2csc(C(O)c3ccc(OC)cc3)n2)c1 (stereo not drawn)	-13%[18.4 µM]	?
CCOC(=O)C(=O)N(C)c1c(CC)nc2c(OCc3cccc(Cl)c3)cccn12	-23%	-30%
COc1ccc(C)cc1S(=O)(=O)NCc1ccccn1	6%	52%[activator]
CC(=O)CC(CC(=O)NC1CCCCC1)c1ccccc1 (stereo not drawn)	-12%	-25%
NC(Cc1ccc(C(F)(F)F)cc1)c1csc(Nc2ccc(C(=O)c3ccccc3)cc2)n1 (stereo not drawn)	-5%[18.4 µM]	-24%
CCc1ccc(C(O)c2ncc(-c3ccc4ccccc4c3)[nH]2)cc1 (stereo not drawn)	-7%	41%[activator]
O=S(=O)(NCCc1c[nH]c2ccccc12)c1ccc(F)cc1	-3%	7%
CC(=O)C1=CCC(c2ccc(Cl)cc2)N(S(=O)(=O)c2ccc(C)cc2)C1 (stereo not drawn)	-5%&4%	-4%&-1%
COc1cccc(S(=O)(=O)N(C)C[C@H]2OCc3cn(nn3)CCCC(=O)N([C@H](C)CO)C[C@@H]2C)c1	-6%	-10%
CC(C)C[C@@H](CN1CCC[C@H]1CN1C(=O)C(=O)NC[C@@H]1Cc1ccccc1)N1C[C@H](Cc2ccccc2)N(CCc2ccccc2)C(=O)C1=O	6%	29%
C=CCNc1nc(NCc2ccc(N(C)C)cc2)c2sc(-c3ccccc3)cc2n1	-16%	-8%
COc1ccc(N2CCCC2=O)cc1S(=O)(=O)N1CCOCC1	-8%	-16%
CC1(c2nnnn2Cc2ccccc2)CCC(=O)N1CCCn1ccnc1 (stereo not drawn)	1%	0%
COc1cccc(C(c2nnnn2C2CCCCC2)N2CCN(C/C=C/c3ccccc3)CC2)c1OC (stereo not drawn)	-7%	-14%
COc1ccc(C(=O)NC2CC(C)(C)NC(C)(C)C2)cc1S(=O)(=O)N1CCOCC1	20%	-6%
CCc1nc2ccc(C(=O)NCCc3ccccn3)cn2c1N(C)Cc1nccs1	?	-18%
COCCCn1cc(CN2CC(N3CCN(CCO)CC3)CS2(=O)=O)nn1 (stereo not drawn)	2%	-18%
